Screening results as filed in PubChem.
DT40 TDP1 no CPT: qHTS for Inhibitors of human tyrosyl-DNA phosphodiesterase 1 (TDP1): qHTS in cells in absence of CPT | DT40 Tdp1-/- hTDP1 cells, no CPT, ATP luminescence, 48 h | Potency, µM (top dose mostly 46.2 µM), for inactives: at the top dose activity change, negative = growth inhibition, actives largely listed as inhibitors | actives 15% (n = 420,000) | AID 686978, 2013; note: nearly all actives have a fitted effect of over 55% in size
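No-CPT arm: Tdp1-/-;hTDP1 DT40 cells (400/well) plus compounds, incubated ≥48 hr at 37 °C. Readout CellTiter-Glo luminescence.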
DT40 TDP1 CPT: DT40-hTDP1 cell growth loss with CPT. chicken DT40 Tdp1-/-;hTDP1 cells + 20 nM CPT, ATP luminescence, 48 h. actives 12% (n = 420,000). Potency, µM (doses to about 46.2 µM), for the others: at the highest dose activity change, negative = growth inhibition, usual class: inhibitors; note: nearly all actives have a fitted effect of over 55% in size
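Cell growth measured by CellTiter-Glo luminescence after a minimum 48 h, 37 C compound exposure with 20 nM CPT in Tdp1-knockout DT40 cells stably expressing hTDP1, seeded 400/well; qHTS titration format.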
* hit, by the source's call; ? = inconclusive; & = joins results of further samples. Calls come from the whole dose curve; as a rule, active = well fitted inhibition curve with a large enough effect; inconclusive = small, poorly fitted or top-dose-only effect; inactive = flat fitted curve, though single readings scatter. % is set by controls: 0 for no effect and ±100 for the full control effect; potency is the fitted concentration of half-maximal effect. Some of the compounds tested; most or all hits stand in other tables.

Compound | DT40 TDP1 no CPT | DT40 TDP1 CPT
Cc1ccc(C(c2sc3ncnn3c2O)N2CCCCC2)cc1 (centres undefined) | -15% | -23%
Cc1cc(C(=O)CSc2nnnn2C)c(C)n1Cc1ccco1 | -18% | ?
Cc1cc(C)nc(-n2ncc3c2CC(c2ccccc2C)CC3=O)n1 (centres undefined) | ? | -26%
CC(C)N(C(=O)C(F)(F)F)C(C(=O)NC1CCCCC1)c1ccncc1 (centres undefined) | -13% | 2%
CCCc1nnc(SCC(=O)O)n1/N=C/c1ccc2c(c1)OCO2 | -27% | -1%
O=C(Nc1cc(F)ccc1F)C1CCCO1 (centres undefined) | -4% | -14%
Cc1ccc(C(=O)OC(C)CN2CCOCC2)cc1 (centres undefined) | -22% | -6%
Cc1cc(NC(=O)COC(=O)[C@@H](NS(=O)(=O)c2ccccc2)C(C)C)no1 | 2% | -3%
COc1ccc(Sc2ncnc3onc(C)c23)cc1 | ? | -7%
COc1cc(OC)cc(C(=O)NC(=S)Nc2ccc(Cl)c(C(=O)O)c2)c1 | -5% | -17%
COc1cccc(-c2noc(CCCC(=O)NCc3ccco3)n2)c1 | ? | -15%
COc1ccc(C(=O)c2cnc(/N=C/N(C)C)s2)cc1 | -17% | -11%
Cc1ccccc1-n1ccnc1SCC(=O)NC1CCCC1 | ? | -29%
CCc1c(C(=O)OCc2ccccc2)[nH]c(C)c1C | -26% | 3%
CC/C(=N/O)C(=O)c1ccc(Br)cc1 | -12% | 0%
NC(=O)C1CCN(C(=O)c2ccc(Oc3cc(Cl)cc(Cl)c3)o2)CC1 | 10% | -16%
CC(C)Cn1c(-c2nn(C)cc2Cl)n[nH]c1=S | -11% | -2%
CCOC(=O)C1(Cc2ccccc2)CCCN(CCO)C1 (centres undefined) | -12% | 0%
Cc1ccc(C(=O)NCC(=O)OCC(=O)NC2CCCC(C)C2C)s1 (centres undefined) | 1% | -3%
O=S(=O)(Nc1ccccc1Cl)c1ccc(F)cc1 | -1% | 6%
CC(C)Sc1nc2ccccc2n1CC(=O)NCc1ccc2c(c1)OCO2 | -21% | -2%
C=CCN1C(=O)CSc2ccc(C(=O)NCc3ccco3)cc21 | -5% | ?
COc1ccc2[nH]c(=O)c(COC(=O)c3cccs3)cc2c1 | -25% | -19%
Cc1cc(NC(=O)c2ccccc2-c2ccccc2C(=O)O)no1 | 0% | -2%
COC(=O)[C@@H](NC(=O)Nc1cccc(OC)c1)C(C)C | -3% | -3%

Continued (seven carried over from the part before).
Compound | DT40 TDP1 no CPT | DT40 TDP1 CPT
Cc1ccc(C(=O)NCC(=O)OCC(=O)NC2CCCC(C)C2C)s1 (centres undefined) | 1% | -3%
O=S(=O)(Nc1ccccc1Cl)c1ccc(F)cc1 | -1% | 6%
CC(C)Sc1nc2ccccc2n1CC(=O)NCc1ccc2c(c1)OCO2 | -21% | -2%
C=CCN1C(=O)CSc2ccc(C(=O)NCc3ccco3)cc21 | -5% | ?
COc1ccc2[nH]c(=O)c(COC(=O)c3cccs3)cc2c1 | -25% | -19%
Cc1cc(NC(=O)c2ccccc2-c2ccccc2C(=O)O)no1 | 0% | -2%
COC(=O)[C@@H](NC(=O)Nc1cccc(OC)c1)C(C)C | -3% | -3%
Cc1cc(N2CCN(C)CC2)nc2ccc(NC(=S)NC3CC3)cc12 | -1% | 7%
COc1ccc([N+](=O)[O-])cc1NC(=O)CCN1CCN(C)CC1 | 2% | 11%
CCN(CC)S(=O)(=O)c1ccc(C(=O)NC(=S)N(CCO)Cc2ccccc2)cc1 | ? | -29%
O=C(CN(C(=O)CNS(=O)(=O)c1ccccc1)c1ccc(Cl)cc1)NCC1CCCO1 (centres undefined) | -1% | 8%
O=C(O)c1ccc(-c2nnn(Cc3ccccc3F)n2)cc1 | -3% | -1%
CCCCn1c(=O)cc(O)c2ccccc21 | 12% | -12%
CN(CC(=O)Nc1ccc(Cl)cc1)C(=O)C1=COCCO1 | -8% | 12%
COC(=O)CCSCC(=O)Nc1cc(C)on1 | 0% | -9%
CC(CN1CCCCC1)OC(=O)c1ccc2c(c1)OCCO2 (centres undefined) | -20% | -2%
CCCn1nnnc1-c1ccc(Cl)cc1 | -1% | -18%
O=C(COC(=O)CNC(=O)c1ccccc1F)Nc1ccc2[nH]c(=O)[nH]c2c1 | -2% | -3%
Cc1ccc2nc(C)c(C(=O)N/N=C/c3cccc([N+](=O)[O-])c3)cc2c1 | -21% | ?
O=C(c1c[nH]c2ccccc12)N1CCOCC1 | -4% | -2%
Cn1c(=O)c(=O)n(C)c2cc(S(=O)(=O)CCC(=O)Nc3cccc(C(F)(F)F)c3)ccc21 | 16%&-7% | -4%&-1%
Cc1ccc(S(=O)(=O)N2CCCCC2)cc1NC(=O)C1CC(=O)N(Cc2ccccc2)C1 (centres undefined) | -26% | -3%
CC12CN3CC(C)(CN(C1)C3c1ccc(Br)cc1)C2=O (centres undefined) | -16% | -1%
COc1ccc(OC(C)C(=O)NCCC2=CCCCC2)cc1 (centres undefined) | -28% | -30%
O=C1CSC(c2ccccc2)N1CC(O)c1ccc([N+](=O)[O-])cc1 (centres undefined) | -16% | -3%
CC(C)CCNC(=O)[C@H](CSCc1ccccc1)N1Cc2ccccc2C1=O | -18% | -3%
Cc1ccc(NC(=O)C2CC=CCC2C(=O)N2CCCCC2)cc1 (centres undefined) | -10% | 12%
COc1ccc(CCNC(=O)CC(NC(=O)c2ccccc2Cl)c2ccccc2)cc1 (centres undefined) | -4% | 9%
O=C(c1ccco1)n1nc(-c2ccco2)nc1SCc1ccccc1 | -20% | ?
CCOC(=O)c1nnn(-c2nonc2N)c1-c1ccc(OC)cc1 | -7% | -3%
CCN1CCN(C(=O)CS(=O)Cc2nc(-c3ccc(OC)cc3)oc2C)CC1 (centres undefined) | -7% | -17%
Cc1cc(/C(O)=C2\C(=O)C(=O)N(CCN(C)C)C2c2ccncc2)ccc1OCc1ccccc1 (centres undefined) | -1% | -7%

Arranged by SMILES length (smallest number first): 3 of the compounds above.
Compound | DT40 TDP1 no CPT | DT40 TDP1 CPT
COC(=O)CCSCC(=O)Nc1cc(C)on1 | 0% | -9%
Cc1cc(C)nc(-n2ncc3c2CC(c2ccccc2C)CC3=O)n1 (centres undefined) | ? | -26%
Cc1ccc(S(=O)(=O)N2CCCCC2)cc1NC(=O)C1CC(=O)N(Cc2ccccc2)C1 (centres undefined) | -26% | -3%

Record cards, as listed above. Order of values: DT40 TDP1 no CPT	DT40 TDP1 CPT
CC(C)CCNC(=O)[C@H](CSCc1ccccc1)N1Cc2ccccc2C1=O in the list: -18%	-3%
CCN1CCN(C(=O)CS(=O)Cc2nc(-c3ccc(OC)cc3)oc2C)CC1 (centres undefined) in the list: -7%	-17%
CC12CN3CC(C)(CN(C1)C3c1ccc(Br)cc1)C2=O (centres undefined) in the list: -16%	-1%
O=C1CSC(c2ccccc2)N1CC(O)c1ccc([N+](=O)[O-])cc1 (centres undefined) in the list: -16%	-3%
Cc1ccc(S(=O)(=O)N2CCCCC2)cc1NC(=O)C1CC(=O)N(Cc2ccccc2)C1 (centres undefined) in the list: -26%	-3%

Next section
Compound | DT40 TDP1 no CPT | DT40 TDP1 CPT
O=C(NCCN1CCOCC1)c1csc2c1CCCCC2 | -10% | 3%
Cc1nc2ccc(NC(=O)c3ccc(=O)[nH]c3)cc2s1 | -17% | 2%
CSCCC(Nc1nc2ccccc2s1)C(=O)O (centres undefined) | -13% | -3%
COc1cccc(-c2noc(C(C)n3nc(C)c([N+](=O)[O-])c3C)n2)c1 (centres undefined) | -20% | -4%
O=C(CC1C(=O)NCCN1Cc1c(F)cccc1Cl)NC1CCCCCC1 (centres undefined) | ? | -20%
CCO/N=C(/C)c1c(O)cc(C(C)(C)C)n(-c2ccccc2)c1=O | 0% | -19%
C=CCOc1ccc(CNCCO)cc1OCC | -18% | ?
O=S(=O)(NCc1ccccc1Br)c1cccs1 | -8% | -1%
N#C/C(=C\C=C\c1ccccc1)C(=O)N1CCCC1 | -14% | -19%
CCN(CC(=O)Nc1ccc2c(c1)OCCO2)C(=O)CCc1ccc(OC)cc1 | -13% | -5%
O=C(CSc1ccccc1)NCc1ccccn1 | -27% | ?
c1ccc2c(-c3nn[nH]n3)cccc2c1 | -17% | -14%
COc1cccc(C2C(C#N)=C(N)Oc3cc(C)oc(=O)c32)c1OC (centres undefined) | 4% | -3%
CC(=O)c1ccc(NC(=O)c2ccc(N3CCCC3=O)cc2)cc1 | -7% | 4%
CCOC(=O)c1c2c([nH]c(=S)c1C#N)CCCC2 | -16% | 1%
Cn1c(SCc2ccccn2)nnc1-c1ccncc1 | -11% | 2%
CC(C)CC(NC(=O)OC(C)(C)C)C(=O)NC(C(=O)N1CCCC1C(N)=O)C(C)C (centres undefined) | ? | -12%
Cc1ccc(-c2cc(C(=O)Nc3cc(C)ccc3O)no2)cc1 | -10% | 2%
CCOc1cc(C)c(S(=O)(=O)N2CCCCC2)cc1C | 5% | -22%
Cc1ccc(NC(=O)CSc2ccc(-c3cccnc3)nn2)cc1Cl | -25% | -28%
O=C(O)CCCNS(=O)(=O)Cc1ccccc1 | -5% | 17%
CCCOc1ccc(-c2c(C(=O)N/N=C(\C)c3ccco3)nnn2-c2nonc2N)cc1 | -6% | -21%
CCOCCCNC(=O)Cc1cc(=O)[nH]c(=O)[nH]1 | 0% | 1%
CC(=O)N(CN1C(=O)c2ccc([N+](=O)[O-])cc2C1=O)c1ccc(F)cc1 | -4% | -13%
CCC(=O)Nc1nnc(-c2ccc(Cl)s2)o1 | ? | 0%

Structural class: the compounds so far containing a CF3 group
Compound | DT40 TDP1 no CPT | DT40 TDP1 CPT
CC(C)N(C(=O)C(F)(F)F)C(C(=O)NC1CCCCC1)c1ccncc1 (centres undefined) | -13% | 2%
Cn1c(=O)c(=O)n(C)c2cc(S(=O)(=O)CCC(=O)Nc3cccc(C(F)(F)F)c3)ccc21 | 16%&-7% | -4%&-1%

Next compounds follow:
Compound | DT40 TDP1 no CPT | DT40 TDP1 CPT
O=C(CSc1nnnn1C1CCCC1)Nc1ccccc1N1CCOCC1 | ? | -24%
CCC(C)NS(=O)(=O)c1ccc(NS(=O)(=O)c2ccccc2[N+](=O)[O-])cc1 (centres undefined) | 0% | -1%
CCc1cccc2c(C(=O)CSc3nnc(-c4ccncc4)n3C)c[nH]c12 | -4% | 22%
CC(=O)Nc1cc(C(=O)O)ccc1S(=O)(=O)c1ccc(C)cc1 | 3% | -6%
CCCSCCCNC(=O)Cn1nc(CC)n2c(cc3c(OC)cccc32)c1=O | -15% | -8%
CC(=O)Nc1cccc(/C(C)=N/NS(=O)(=O)c2ccccc2)c1 | -11% | -1%
CCCn1c(O)c(CN2CCCCC2)c(C)c(C#N)c1=O | -25% | -3%
COc1cccc2cc(C(=O)NC(C)C3CCCO3)c(=O)oc12 (centres undefined) | 2% | -19%
CCCOC(=O)CC1C(=O)NCCN1Cc1cc(OC)cc(OC)c1 (centres undefined) | 10% | 11%
O=C(COc1ccccc1)NNC(=O)c1cc2ccccc2oc1=O | -10% | 7%
CN(C)S(=O)(=O)c1ccc(N=Cc2c(C(F)(F)F)[nH][nH]c2=O)cc1 | 0% | 3%
S=C(Nc1cccc(Cl)c1)N1CCN(c2ccccn2)CC1 | 4% | 4%
O=S(=O)(c1ccccc1)N1CCCN(S(=O)(=O)c2ccccc2)CC1 | -13% | -9%
Nc1ccc(C(=O)N/N=C\C=C\c2cccc([N+](=O)[O-])c2)cc1 | 3% | 6%
CCCOC(=O)C1=C(C)OC23OC(N)=C(C#N)C12C(=O)c1ccccc13 (centres undefined) | -28% | -2%
COCCN(C(C)=O)c1nnc(-c2ccccn2)s1 | -20% | -10%
C#CCN(C(=O)Nc1ccccc1)c1ccccc1 | ? | -12%
CSc1ncccc1C(=O)OCC(=O)NC1CCCC1 | -16% | -6%
CC1(C(=O)NC2CCCCCCC2)CCC(=O)N1Cc1ccco1 (centres undefined) | -22% | -12%
